Hsc70: Hsc70 inhibitors, probe displacement, primary screen, biochemical, fluorescence polarization (AID 568) | 83,000 tested, under 10 active | one-dose displacement, % at 20 µM; IC50 in µM for titrated hits | Hsc70 fluorescence polarization, probe displacement; higher % means a stronger effect; strong numbers were not always called active;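 active = displacement above 50% without optical interference and an IC50 on retest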;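 note: ATPase domain with a fluorescein-tagged ATP probe; 0% = vehicle and 100% = excess ADP; read after one hour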
WNV protease inh: blocks West Nile virus NS2B-NS3 protease activity; P06935; WNV NS2B-NS3 protease, fluorogenic substrate Ex360/Em465; active compounds read low; z-score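 (tested at a level between 10 and 100 µM)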; 65,000 tested, 0.18% active;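 active = z-score at -3 or under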;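 note: score is relative to mean and spread of the compound wells of a plate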
Target sequence (P06935 1371-1501 limits assumed): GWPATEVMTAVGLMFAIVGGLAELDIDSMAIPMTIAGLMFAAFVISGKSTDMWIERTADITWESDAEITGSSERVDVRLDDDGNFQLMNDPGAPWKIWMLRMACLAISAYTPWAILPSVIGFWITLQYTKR
Target sequence (P06935 1502-1679 limits assumed): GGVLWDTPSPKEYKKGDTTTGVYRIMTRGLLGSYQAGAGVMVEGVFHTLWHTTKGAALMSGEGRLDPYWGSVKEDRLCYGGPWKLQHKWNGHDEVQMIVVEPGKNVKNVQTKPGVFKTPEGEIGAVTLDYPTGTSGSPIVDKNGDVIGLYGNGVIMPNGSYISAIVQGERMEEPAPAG
MT1-MMP promoter: MT1-MMP gene expression reporter suppression – cell-based, luciferase reporter, luminescence (AID 618); MT1-MMP promoter luciferase reporter cells, luminescence; calls from a first round at 10 µM; hits with a dose series show EC50 in µM; 87,000 tested, 0.62% active;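 active = over half of the reporter light lost at 10 µM or EC50 under 50 µM; inactive = the rest and hits that failed the dose series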;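 note: actives suppress MT1-MMP promoter-driven transcription so potencies describe inhibitors; HT1080 fibrosarcoma cells; overnight exposure; toxic or luciferase-blocking compounds were not removed from the actives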
* hit, by the source's call.

For Cc1cc2cc(C(c3nnnn3Cc3ccco3)N3CCc4ccccc43)c(=O)[nH]c2cc1C (centres undefined) the results were Hsc70 -6.8%, WNV protease inh 0.71 and MT1-MMP promoter inactive.
COc1ccc(OC)c(C2C(C(N)=O)=C(C)Nc3nc(-c4cccc(Cl)c4)nn32)c1 (centres undefined) was read as Hsc70 2.1%, WNV protease inh -4.8* and MT1-MMP promoter inactive.
`COC(=O)CSc1nc2cc3c(cc2cc1C)OCCO3` gave Hsc70 -5.6%, WNV protease inh -0.2 and MT1-MMP promoter inactive.
CNS(=O)(=O)c1cc(OC)ccc1OC was read as Hsc70 6.2%, WNV protease inh -1.2 and MT1-MMP promoter inactive.
`O=C(NCc1ccccc1)C1CCN(S(=O)(=O)N2CCOCC2)CC1` gave Hsc70 -2.8%, WNV protease inh 0.25 and MT1-MMP promoter inactive.
Screening COc1ccc(C2C3=C(CC(C)(C)CC3=O)Nc3c2c(=O)[nH]c(=O)n3Cc2ccccc2)cc1 (centres undefined) returned Hsc70 -0.4%, WNV protease inh -0.34 and MT1-MMP promoter inactive.
`CCOC(=O)N1CCC(n2c(SCC(=O)NCc3ccco3)nc3ccsc3c2=O)CC1` gave Hsc70 1.9%, WNV protease inh -0.64 and MT1-MMP promoter inactive.
O=C(c1cc(-c2ccncc2)nc2ccccc12)N1CCN(c2ccccn2)CC1 was read as Hsc70 -14%, WNV protease inh 0.62 and MT1-MMP promoter inactive.
Screening COCCNC(=O)COC(=O)CSCc1nc2ccccc2s1 returned Hsc70 -1.5%, WNV protease inh 0.31 and MT1-MMP promoter inactive.
`CCN(CC)CCCOc1nc(C)nc2c1oc1ccccc12` gave Hsc70 6.0%, WNV protease inh 0.51 and MT1-MMP promoter inactive.
For CCCCN1C(=O)NC(NC(C)=O)(C(F)(F)F)C1=O (centres undefined) the results were Hsc70 8.7%, WNV protease inh -1.5 and MT1-MMP promoter inactive.
For COC(=O)[C@@H](NC(=O)N1CCN(c2cccc(C(F)(F)F)c2)CC1)C(C)C the results were Hsc70 -2.1%, WNV protease inh 0.44 and MT1-MMP promoter inactive.
For CCN(C(=O)COC(=O)c1cccnc1SC)C1CCS(=O)(=O)C1 (centres undefined) the results were Hsc70 -1.6%, WNV protease inh 0.68 and MT1-MMP promoter inactive.
`CC1(C)CC(=O)C(Sc2nnc(-c3ccc(O)cc3)n2CC2CCCO2)C(=O)C1` (centres undefined) gave Hsc70 -3.3%, WNV protease inh 0.05 and MT1-MMP promoter inactive.
Screening Cc1cc(C)n(-c2cc(N3CCOCC3)ncn2)n1 returned Hsc70 -0.3%, WNV protease inh -1.8 and MT1-MMP promoter inactive.
`O=C1NCCCN1Cc1ccc(F)cc1Cl` gave Hsc70 -3.3%, WNV protease inh 2 and MT1-MMP promoter inactive.
For Cc1ccc(OC(=O)C(F)(F)F)c2c1NCCC2 the results were Hsc70 2.8%, WNV protease inh -0.56 and MT1-MMP promoter inactive.
For COc1ccc(NC(=O)C2CCCN2C(=O)NCc2ccccc2)cc1OC (centres undefined) the results were Hsc70 -4.9% and MT1-MMP promoter inactive.
CCn1c(N2CCC(Cc3ccccc3)CC2)nc2c1c(=O)[nH]c(=O)n2C was read as Hsc70 -1.9%, WNV protease inh 1.7 and MT1-MMP promoter inactive.
Cc1ccc2c(c1)nnn2C1CCN(S(=O)(=O)c2ccc(C(=O)N(C)C)cc2)CC1 was read as Hsc70 0.7%, WNV protease inh 0.75 and MT1-MMP promoter inactive.

Reprinted from the part before: 6 compounds, then new ones.
Screening Cc1cc(C)n(-c2cc(N3CCOCC3)ncn2)n1 returned Hsc70 -0.3%, WNV protease inh -1.8 and MT1-MMP promoter inactive.
`O=C1NCCCN1Cc1ccc(F)cc1Cl` gave Hsc70 -3.3%, WNV protease inh 2 and MT1-MMP promoter inactive.
For Cc1ccc(OC(=O)C(F)(F)F)c2c1NCCC2 the results were Hsc70 2.8%, WNV protease inh -0.56 and MT1-MMP promoter inactive.
For COc1ccc(NC(=O)C2CCCN2C(=O)NCc2ccccc2)cc1OC (centres undefined) the results were Hsc70 -4.9% and MT1-MMP promoter inactive.
CCn1c(N2CCC(Cc3ccccc3)CC2)nc2c1c(=O)[nH]c(=O)n2C was read as Hsc70 -1.9%, WNV protease inh 1.7 and MT1-MMP promoter inactive.
Cc1ccc2c(c1)nnn2C1CCN(S(=O)(=O)c2ccc(C(=O)N(C)C)cc2)CC1 was read as Hsc70 0.7%, WNV protease inh 0.75 and MT1-MMP promoter inactive.
For CCOc1ccc(Cl)cc1S(=O)(=O)n1cnc2ccccc21 the results were Hsc70 -0.1%, WNV protease inh -0.27 and MT1-MMP promoter inactive.
`CCOc1ccccc1NC(=O)c1ccccc1NS(C)(=O)=O` gave Hsc70 0.9%, WNV protease inh 0.75 and MT1-MMP promoter inactive.
CC(=O)Nc1ccc(S(=O)(=O)CCC(=O)O)cc1 was read as Hsc70 -0.3% and MT1-MMP promoter inactive.
For O=C(c1ccc(C(F)(F)F)cc1)N1CCCCC1 the results were Hsc70 -0.2%, WNV protease inh -0.51 and MT1-MMP promoter inactive.
Screening Cc1nc2ccc(Cl)cc2nc(C)/c1=N\O returned Hsc70 -5.8%, WNV protease inh 0.06 and MT1-MMP promoter inactive.
C=CCN=C(C)C1=C(O)CCC1=O was read as Hsc70 1.4%, WNV protease inh -0.36 and MT1-MMP promoter inactive.
CCOC(=O)C1CCCN(CC(=O)NC2=Nc3ccccc3N=C(C)C2c2ccccc2)C1 (centres undefined) was read as Hsc70 6.3%, WNV protease inh 1.5 and MT1-MMP promoter inactive.
Screening NC(=O)C1(N2CCCCC2)CCN(C(=O)Nc2ccccc2C(F)(F)F)CC1 returned Hsc70 -4.0%, WNV protease inh -0.09 and MT1-MMP promoter inactive.
For CCn1c(SCC(=O)N2CCN(c3ccccc3)CC2)nnc1-c1ccoc1C the results were Hsc70 4.7%, WNV protease inh 0.34 and MT1-MMP promoter inactive.
For O=C(COC(=O)c1ccc2c(c1)OCCO2)NCCC1=CCCCC1 the results were Hsc70 -2.1%, WNV protease inh -0.09 and MT1-MMP promoter inactive.
For COc1ccc(-c2nnc(SCc3cc(C)cc(C)c3)o2)cc1 the results were Hsc70 0.9%, WNV protease inh -0.83 and MT1-MMP promoter inactive.
Screening CCOC(=O)C1=C(C)NC(SC)=NC1c1ccccc1 (centres undefined) returned Hsc70 3.7% and MT1-MMP promoter inactive.
`O=C(CN1CCN(c2ccc(Cl)cc2)CC1)Nc1cccc(F)c1` gave Hsc70 -1.3%, WNV protease inh 0.33 and MT1-MMP promoter inactive.
For C=C(C)Cn1c(=O)c(NC(=O)c2ccccc2)c2n(c1=S)CCC2 the results were Hsc70 1.2%, WNV protease inh -0.15 and MT1-MMP promoter inactive.
COC(=O)c1ccc(Cn2nnc3c(sc4nc(N5CCOCC5)c5c(c43)CCCC5)c2=O)o1 was read as Hsc70 -2.7%, WNV protease inh -0.31 and MT1-MMP promoter inactive.
O=C(CN1C(=O)CSC1=O)NCc1ccccc1 was read as Hsc70 -8.2%, WNV protease inh -0.08 and MT1-MMP promoter inactive.
O=C(Nc1ccc(Cc2ccncc2)cc1)c1ccco1 was read as Hsc70 -5.2%, WNV protease inh -1.3 and MT1-MMP promoter inactive.
For CCOC(=O)c1cnc(-n2cc(C)cn2)nc1NCc1ccc2c(c1)OCO2 the results were Hsc70 -5.8%, WNV protease inh -0.78 and MT1-MMP promoter inactive.
For CCOC(=O)c1cnn(-c2ncnc3sc(C)c(C)c23)c1N the results were Hsc70 -6.6%, WNV protease inh 0.66 and MT1-MMP promoter inactive.
O=C(CSc1nnc(-c2cccs2)o1)OC1CCCCC1 was read as Hsc70 -0.7%, WNV protease inh -0.29 and MT1-MMP promoter inactive.
`Cc1nnc2sc(-c3cc4ccccc4o3)nn12` gave Hsc70 -1.1%, WNV protease inh -0.59 and MT1-MMP promoter inactive.
For CNc1nc(OCC(F)(F)F)nc(N2CCN(C34CC5CC(CC(C5)C3)C4)CC2)n1 the results were Hsc70 1.3% and MT1-MMP promoter inactive.
CCCC(=O)NCCCc1nc2ccccc2[nH]1 was read as Hsc70 -0.1%, WNV protease inh -0.72 and MT1-MMP promoter inactive.
Screening CCn1c2ccccc2c2cc(/C=N/n3cnnc3)ccc21 returned Hsc70 -3.3%, WNV protease inh -0.45 and MT1-MMP promoter inactive.
`CCOC(=O)CSc1nnc(CNC(=O)c2ccc(OC)cc2)n1Cc1ccccc1` gave Hsc70 -2.0%, WNV protease inh -1.3 and MT1-MMP promoter inactive.
CCOc1cc(C2NC(=O)NC(C)=C2C(=O)OCc2ccccc2)ccc1O (centres undefined) was read as Hsc70 2.7%, WNV protease inh -1.1 and MT1-MMP promoter inactive.
Screening N#Cc1cc2ccc(N3CCOCC3)cc2cc1C#N returned Hsc70 9.2%, WNV protease inh -0.01 and MT1-MMP promoter inactive.
Screening CC(C)Sc1nnc(NC(=O)C2CC2)s1 returned Hsc70 3.1%, WNV protease inh -0.06 and MT1-MMP promoter inactive.
For Cc1c(CN(C)C)c2c(n1C)C(=O)c1ccc(Br)cc1-2 the results were Hsc70 -2.1%, WNV protease inh 0.2 and MT1-MMP promoter inactive.
Cc1cccn2c(=O)c3cc(C(=O)N4CCc5ccccc5C4)n(C)c3nc12 was read as Hsc70 4.5%, WNV protease inh -0.17 and MT1-MMP promoter inactive.
For COc1ccccc1C1CC(=O)NC(C)=C1C(=O)OCC(C)C (centres undefined) the results were Hsc70 0.5%, WNV protease inh -1 and MT1-MMP promoter inactive.
O=C(CCn1[nH]c(=O)c2ccccc2c1=O)NCCO was read as Hsc70 -2.7%, WNV protease inh -0.61 and MT1-MMP promoter inactive.
`CCOC(=O)Cc1csc(NC(=O)CSc2nnc(Cc3csc(N)n3)n2C)n1` gave Hsc70 -1.5%, WNV protease inh 0.12 and MT1-MMP promoter inactive.
For COc1ccc(C(=O)Nc2ccc3c(c2)OCCO3)cc1 the results were Hsc70 2.7% and MT1-MMP promoter 3µM*.
`O=C(NCCOc1nc(N2CCOCC2)nc(N2CCOCC2)n1)Nc1ccc(Cl)cc1` gave Hsc70 -2.8% and MT1-MMP promoter inactive.
CCc1c(C)c2nncn2[nH]c1=O was read as Hsc70 -1.7%, WNV protease inh 0.92 and MT1-MMP promoter inactive.
Screening COc1cccc(C(C(=O)NC(C)(C)C)N(C(=O)CCC(=O)Nc2cc(C)on2)C(C)(C)C)c1OC (centres undefined) returned Hsc70 -0.6% and MT1-MMP promoter inactive.
CCCCCC(O)(CCCCC)C(=O)NNc1ccccc1 was read as Hsc70 0.6% and MT1-MMP promoter inactive.
`O=C(NC1CCCCC1)C(c1ccccc1F)N(Cc1ccco1)C(=O)Cn1nnc2ccccc21` (centres undefined) gave Hsc70 -3.7%, WNV protease inh 2.1 and MT1-MMP promoter inactive.
Screening Cc1cc(C)nc(N2CCC(C(=O)NC3CCCCCC3)CC2)n1 returned Hsc70 0.4%, WNV protease inh -0.64 and MT1-MMP promoter inactive.
`CSc1ccc(S(=O)(=O)N2CCCC2)cc1` gave Hsc70 1.8%, WNV protease inh -1.7 and MT1-MMP promoter inactive.
Screening Cc1cc2ncn(-c3nnnn3-c3ccccc3)c2cc1C returned Hsc70 -3.9%, WNV protease inh 0.07 and MT1-MMP promoter inactive.
For CCOC(=O)C1=C(CSc2nc3c(cc2C#N)CN(C)CC3)OC(N)=C(C#N)C1c1ccccc1 (centres undefined) the results were Hsc70 6.1%, WNV protease inh -0.8 and MT1-MMP promoter inactive.
`Cc1sc2nc(SCC(=O)N3CCOCC3)[nH]c(=O)c2c1C` gave Hsc70 6.7%, WNV protease inh 0.54 and MT1-MMP promoter inactive.
`C=CCn1c(SCC(=O)Nc2cccc(OC)c2)nnc1-c1cccnc1` gave Hsc70 1.2%, WNV protease inh -0.24 and MT1-MMP promoter inactive.
`CCCSc1nc2c(=O)[nH][nH]c(=O)c2n1Cc1ccccc1` gave Hsc70 -4.5% and MT1-MMP promoter inactive.
Cc1cc(=O)oc2cc(OCC(=O)OCc3nnc(-c4ccccc4)o3)ccc12 was read as Hsc70 -1.1%, WNV protease inh -1.3 and MT1-MMP promoter inactive.
Screening Cn1nc(C(=O)Nc2c(-c3ccccc3)nc3sccn23)c2ccccc2c1=O returned Hsc70 -1.9%, WNV protease inh 0.34 and MT1-MMP promoter inactive.
`Cn1nnc(NC(=O)c2cccc(OCc3ccccc3)c2)n1` gave Hsc70 5.8%, WNV protease inh 0.19 and MT1-MMP promoter inactive.
`O=C(CCn1c(=S)[nH]c2cc3c(cc2c1=O)OCO3)N1CCN(c2ccccn2)CC1` gave Hsc70 4.3%, WNV protease inh -0.77 and MT1-MMP promoter inactive.
`O=C(CSc1ncn[nH]1)c1ccccc1` gave Hsc70 0.3%, WNV protease inh 0.02 and MT1-MMP promoter inactive.
For O=C1C2CC=CCC2C(=O)N1c1nc2n(n1)C(c1ccccc1)CC(c1ccccc1)N2 (centres undefined) the results were Hsc70 1.1%, WNV protease inh -0.33 and MT1-MMP promoter inactive.
COc1ccccc1N1CCN(C(=O)C2CCN(S(=O)(=O)c3ccc(Cl)cc3)CC2)CC1 was read as Hsc70 1.5%, WNV protease inh 2.4 and MT1-MMP promoter inactive.
For CCCC/C(O)=C1\C(=O)CC(C)(C)CC1=Nc1ccc(OC)cc1 the results were Hsc70 -1.8% and MT1-MMP promoter inactive.
Screening CC(=O)Nc1ccc(OC(=O)CC2SC(=O)NC2=O)cc1 (centres undefined) returned Hsc70 3.4%, WNV protease inh -0.44 and MT1-MMP promoter inactive.
Cn1ncc(Br)c1C(=O)Nc1c(F)c(F)cc(F)c1F was read as Hsc70 -4.2% and MT1-MMP promoter inactive.

Screens from PubChem.
